RanGTP-Imp inh: inhibitors of RanGTP-importin-beta interaction, primary screen, biochemical, FRET, CFP-Ran, YFP-importin-beta, homogeneous; Ran GTPase (GTP-bound) - importin-beta complex; cell-free CFP-Ran/YFP-importin-beta FRET ratio; inhibition, % (no concentration beside the values); 300,000 compounds, 1.1% hits;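 active = most replicates above 15%; inconclusive = exactly half above 15%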;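 note: 0% = DMSO wells and 100% = Ran loaded with GDP instead of GTP; wells of about 40 µL received 100 nL stock; the first replicate is given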
Beta cell apopt: inhibitors of cytokine-induced beta cell apoptosis, primary screen, luminescence; INS-1E cytokine-induced death, ATP luminescence, 48 h; percent of positive-control rescue, neutral wells zero; 300,000 compounds, 0.8% hits; protection from apoptosis, % (concentration not given with the values);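 active = all replicates at 75% or more, or half of them and the mean; inconclusive = half reach 75% but not the mean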;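 note: 0% = cytokine-treated negative control wells and 100% = positive control rescue; higher means more ATP so stronger rescue from cytokine killing; wells of about 40 µL received 100 nL stock; the first replicate is given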
LANA-H2A inh: blockers of LANA interaction with H2A/H2B – biochemical, FP readout, HTS, primary screen. Protein LANA1 (Human herpesvirus 8 type P (isolate GK18)), Q9QR71. cell-free LANA-H2A/H2B peptide, fluorescence polarization. inhibition, % (test concentration not listed). AID 2629, 2010. 320,000 compounds, 0.6% hits; in the data active = inhibition mostly above about 10%, no sharp cut-off; inactive = mostly below about 6.7%;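 note: stock transfer was 7.5 nL into about 10 µL; 0% = median of vehicle wells and 100% = median of positive control wells; one replicate is shown; the record names a cut of 25% in any replicate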
UCH37 inh: inhibitors of human UCH37 deubiquitinase, primary screen, biochemical, Ub-AMC cleavage, fluorescence | Ubiquitin carboxyl-terminal hydrolase isozyme L5 (Homo sapiens), Q9Y5K5 | purified proteasome/UCH37 | inhibition, % (concentration not given with the values) | 330,000 compounds, 0.33% hits | AID 588478, 2011;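 active = mean of two replicates above 20%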;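 note: 0% = compound-free wells with enzyme and 100% = wells lacking proteasome; stock transfer was 100 nL into about 20 µL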
Target sequence (Q9Y5K5 whole entry, looked up): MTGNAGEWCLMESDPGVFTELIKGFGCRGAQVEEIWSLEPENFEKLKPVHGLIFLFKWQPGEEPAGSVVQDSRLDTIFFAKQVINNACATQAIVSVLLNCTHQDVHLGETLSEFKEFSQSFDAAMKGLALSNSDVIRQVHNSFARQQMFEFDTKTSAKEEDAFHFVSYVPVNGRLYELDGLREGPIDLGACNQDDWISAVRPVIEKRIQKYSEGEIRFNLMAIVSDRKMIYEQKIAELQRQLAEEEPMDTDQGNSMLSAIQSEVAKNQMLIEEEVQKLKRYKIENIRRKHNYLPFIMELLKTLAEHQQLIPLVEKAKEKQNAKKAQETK
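Material: human UCH37 enzyme supplied as purified proteasome complex / Amount: 0.15 nM proteasome as dispensed / Buffer or medium: pH 7.4 Tris-HCl (50 mM) with ovalbumin, ATP-MgCl2, DTT / Times: preincubation 30 min, reaction 25 min, room temperature / Technique: AMC fluorescence from Ub-AMC cleavage, excitation 355 nm, emission 460 nm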
B2AR ag: beta2AR agonists driving receptor internalization, primary screen, cell-based, FAP fluorogen, flow cytometry. Beta-2 adrenergic receptor (Homo sapiens), P07550. Am2.2-beta2AR cells; reference of the scale not given here. response, % (no concentration beside the values). 340,000 compounds, 0.43% hits. AID 504454, 2011;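 active = response above a set limit, near 3 SD of response in nonfluorescent compounds, cut at about 42% in these data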;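 note: stock transfer was 100 nL into about 11 µL; a reference agonist was the positive control; negative values mostly stem from fluorescent compounds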
Target sequence (P07550 whole entry, looked up): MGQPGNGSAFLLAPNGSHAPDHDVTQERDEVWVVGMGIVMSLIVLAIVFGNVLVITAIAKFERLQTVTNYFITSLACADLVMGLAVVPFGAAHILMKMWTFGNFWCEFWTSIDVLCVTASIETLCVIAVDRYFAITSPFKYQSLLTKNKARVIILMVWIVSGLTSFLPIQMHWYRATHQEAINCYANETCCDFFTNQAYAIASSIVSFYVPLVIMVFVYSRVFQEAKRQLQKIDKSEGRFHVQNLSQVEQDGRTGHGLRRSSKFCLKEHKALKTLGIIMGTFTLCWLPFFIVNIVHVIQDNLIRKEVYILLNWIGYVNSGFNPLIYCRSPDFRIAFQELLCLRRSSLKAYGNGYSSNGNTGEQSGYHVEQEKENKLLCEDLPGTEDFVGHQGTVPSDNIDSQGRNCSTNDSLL
Calb FLC: C. albicans growth inhibition with fluconazole, primary screen, CaCi-2 strain, Alamar Blue fluorescence; C. albicans CaCi-2 (fluconazole-resistant clinical isolate) + fluconazole, 48 h; growth inhibition, % (test concentration not listed); 300,000 compounds, 0.57% hits; AID 1979, 2009;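 active = most replicates above 75%; inconclusive = exactly half above 75%; inactive = most below 75%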;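 note: all wells also contain fluconazole at 8 µg/ml as a sub-toxic cotreatment; 0% = median of DMSO wells and 100% = median of geldanamycin control wells; wells of about 8 µL received 7.5 nL stock; the first replicate is given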
A1 inh: caspase 3/7 activation in MEF A1-2A-BIM cells, primary screen, A1 inhibitor project, cell-based, luminescence, HTS | 330,000 compounds, 0.066% hits | AID 2462, 2010 | caspase activation, % (no concentration beside the values) | Caspase-Glo 3/7 luminescence, 3 h; percent of clofoctol response, vehicle zero;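 active = over half of replicate activation scores above 10%, or exactly half above 10 with the replicate mean above 10; inconclusive = replicate mean below 10 yet half the replicates above 10; inactive = over half of replicates below 10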;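 note: wells of about 30 µL received 50 nL stock; many hits fall short of the cut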
T cruzi inh: inhibitors of intracellular T. cruzi growth, primary screen, luminescence, NIH3T3 host cells; 300,000 compounds, 1.4% hits; inhibition, % (no concentration beside the values); AID 1885, 2009; T. cruzi beta-gal in NIH3T3, 90 h;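 active = mean inhibition across valid replicates above about 55%, limit read from the data; inconclusive = mean below that limit but half or more replicates reach it; inactive = mean below it, under half of replicates reach it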;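 note: signal also drops with host cell toxicity which is not excluded here; 0% = plate median of DMSO wells and 100% = zero luminescence signal; higher percent means less beta-gal luminescence so fewer parasites; stock transfer was 50 nL into about 50 µL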
An asterisk follows results filed as active; i = inactive; ? = inconclusive; nt = not tested or not shown.

SMILES | RanGTP-Imp inh | Beta cell apopt | LANA-H2A inh | UCH37 inh | B2AR ag | Calb FLC | A1 inh | T cruzi inh
Cc1cc2cc(CN(CC3CCCO3)C(=S)Nc3ccccc3)c(=O)[nH]c2cc1C (stereo not given) | -2.8 | 9 | 3.1 | -0.2 | -15 | 9 | 0.5 | -8
COc1ccc(CSc2nc3ccccc3[nH]2)cc1 | -0.9 | 10 | -20 | 2.0 | 10 | 1 | -9.5 | -6
Cn1c(NCCCO)nc2c1c(=O)n(Cc1ccccc1F)c(=O)n2C | 4.3 | -4 | -2.9 | 1.4 | -4 | 4 | 1.0 | -14
O=C(CCS(=O)(=O)Cc1ccccc1F)NCc1ccccc1Cl | 3.9 | 1 | 9.4 | 2.9 | -9 | -5 | -0.1 | -8
C/C(=N\NC(=O)COc1ccc(C)cc1Br)c1cc([N+](=O)[O-])cs1 | 3.6 | 14 | 2.8 | nt | 8 | -5 | 0.9 | ?
CC1COC(Cn2c3ccccc3c3ccccc32)O1 (stereo not given) | 5.3 | 1 | 5.5 | 2.1 | -2 | 8 | 1.3 | 1
Cc1ccc(CSCCNC(=O)/C=C/c2ccccc2Cl)cc1 | 0.1 | -6 | -2.0 | 2.5 | 5 | 3 | 0.1 | -4
CCOC(=O)C1=C(C)NC(=O)CC1c1ccccc1OC (stereo not given) | nt | 3 | 0.6 | 0.9 | -9 | -21 | 2.2 | -6
O=C(CCS(=O)(=O)c1ccc(Cl)cc1)Nc1nc(-c2cccnc2)cs1 | 4.3 | nt | 1.6 | 5.7 | 8 | -6 | -2.1 | -20
Cc1cc(NS(=O)(=O)c2ccc(NC(=O)/C=C/c3c(F)cccc3Cl)cc2)nc(C)n1 | nt | 5 | 6.8 | 9.9 | 4 | nt | 0.1 | 18
COC(=O)[C@@H](NC(=O)c1ccccc1OC1CCN(S(C)(=O)=O)CC1)C(C)C | 2.2 | nt | 3.0 | -1.2 | 3 | 5 | 0.4 | -2
CCn1cc(C(=O)NCc2ccccc2F)c(=O)c2ccc(C)nc21 | -4.8 | 3 | -1.6 | 2.3 | 1 | -12 | -0.3 | -11
COc1cc(/C=N/Nc2ccc(Cl)c(C(=O)O)c2)ccc1OCC(=O)N1C(C)CCCC1C (stereo not given) | 5.9 | 2 | 0.8 | nt | 0 | 21 | ? | -10
Cc1cc(C)nc(CCNC(=O)c2cc(COc3c(F)cccc3F)on2)n1 | -3.4 | -1 | -1.4 | 3.8 | -3 | -8 | 1.2 | -7
CCc1nc(CNC(=O)C2CCC(=O)N(Cc3cccc(OC)c3)C2)no1 (stereo not given) | 2.2 | nt | nt | -0.4 | 0 | 3 | nt | -3
Cc1ccc(C2CC(c3cccc(Br)c3)n3nc(N)nc3N2)cc1 (stereo not given) | ? | 91* | -1.6 | 2.6 | 5 | 10 | -0.5 | 15
O=C(CN1CCC(O)(c2ccc3c(c2)OCO3)CC1)N1CCOCC1 | 0.5 | -5 | -1.9 | 0.9 | -2 | 15 | 0.6 | 10
Cc1c(CC(=O)NCC(C)C)c(=O)oc2cc3c(cc12)CCC(C)(C)O3 | 3.2 | 7 | -0.7 | -404 | 0 | 8 | 1.0 | 3
COc1ccc(NC(=S)NC(NC(=O)/C=C/c2ccccc2)C(Cl)(Cl)Cl)cc1 (stereo not given) | -3.2 | nt | -6.7 | 3.4 | 3 | -6 | ? | 23
C/C(=N\NC(=O)c1ccc(CN2CCOCC2)cc1)c1cccc([N+](=O)[O-])c1 | -1.1 | 3 | -1.5 | nt | -14 | -4 | -0.3 | 4
O=C(c1ccc([N+](=O)[O-])o1)N1CCN(c2nc3c(Cl)cccc3s2)CC1 | -0.5 | nt | -4.6 | 9.8 | 14 | 9 | 1.0 | 59*
CCOC(=O)C1=C(COC(=O)CCOc2ccc(OC)cc2)NC(=O)NC1C (stereo not given) | nt | -6 | -1.7 | 0.2 | -4 | nt | -0.1 | nt
CC(C)NC(=O)N1CCC(n2nccc2NC(=O)CCOc2ccccc2)CC1 | -0.5 | -18 | 0.8 | 2.1 | 6 | -3 | -0.2 | -6
Cc1ccc(-c2csc(NCCc3nc4cc(Cl)c(Cl)cc4n3CCOCCO)n2)cc1 | 3.2 | -5 | -1.6 | 4.3 | 1 | 11 | 0.9 | 14
Cc1cc(C)cc(N(C(=O)c2nsc(Cl)c2Cl)C(C(=O)NC2CCCC2)c2ccc(O)cc2)c1 (stereo not given) | 3.2 | -3 | -4.3 | 4.7 | 10 | 4 | 1.0 | 37
SMILES | RanGTP-Imp inh | Beta cell apopt | LANA-H2A inh | UCH37 inh | B2AR ag | Calb FLC | A1 inh | T cruzi inh
CC1(C)Cc2c(sc(NC(=O)C(C)(C)C)c2C#N)C(C)(C)N1 | 5.5 | -3 | -0.8 | 1.9 | -13 | -9 | 0.0 | 12
Cn1c2ccccc2c2cc([N+](=O)[O-])ccc21 | 1.2 | -1 | 4.3 | 1.5 | 2 | 18 | 1.6 | 12
O=C(CN(C(=O)c1ccc(Cl)cc1)N1C(=O)C2C3C=CC(C3)C2C1=O)c1cccs1 (stereo not given) | 1.8 | -3 | -0.2 | 0.9 | 5 | -3 | 0.6 | 2
O=S(=O)(NC1CCCCC1N1CCCCC1)c1ccccc1 (stereo not given) | 5.7 | nt | 0.7 | -0.6 | 11 | -8 | 0.4 | 1
Cc1ccc(C2(CCNCc3ccc(N(C)C)cc3)CCOC(C(C)C)C2)cc1 (stereo not given) | 3.4 | 19 | -0.2 | nt | 12 | 10 | -0.1 | 48
O=C(CCNC(=O)c1ccco1)NCCN1C(=O)S/C(=C\c2ccc(F)cc2)C1=O | nt | -3 | -1.0 | 7.3 | -7 | nt | 0.3 | nt
O=C(NC1CCC(O)CC1)c1cc(-c2ccco2)nc2ccccc12 (stereo not given) | 0.0 | -1 | 2.6 | i | -9 | -1 | 0.2 | -4
CCc1nnc(NS(=O)(=O)c2ccc(NC(=O)c3ccco3)cc2)s1 | 5.4 | 3 | 3.1 | 4.7 | -13 | 2 | 0.0 | -9
COc1cc(/C=C2\C(=O)NN(c3ccc(C)cc3)C2=O)cc([N+](=O)[O-])c1O | -1.1 | -4 | -0.1 | 16 | -1 | -36 | 1.2 | -3
CCCCCCCNC(=O)C1(CC2CC(c3cccc(Br)c3)=NO2)CCN(C(=O)c2ccccc2)CC1 (stereo not given) | 3.3 | 4 | -5.1 | 5.1 | -5 | 6 | 0.0 | 61*
CN1CCC(=NNC(=O)CN(c2ccc(Oc3ccccc3)cc2)S(C)(=O)=O)CC1 | -0.4 | -9 | 2.5 | 2.4 | -18 | -14 | 0.1 | -17
COC(=O)c1[nH]c2ccc(C)cc2c1NS(=O)(=O)c1ccc(F)cc1 | -6.4 | -2 | -2.5 | -0.3 | 1 | 37 | -0.9 | -2
Cc1ccc(NC(=O)c2cc(=O)n(Cc3ccccc3)c(=O)[nH]2)cc1C | -5.4 | 0 | 0.2 | -8.4 | 5 | -4 | -0.7 | -3
CC(=O)C1=C(C)NC(SCC(N)=O)=C(C#N)C1C (stereo not given) | 5.2 | 3 | 5.1 | -4.5 | -4 | 0 | 0.4 | 13
Cn1c(=O)c2c(nc(Oc3ccc4ccccc4c3)n2C)n(C)c1=O | 0.7 | -4 | 2.7 | -0.7 | -4 | -10 | -0.2 | -12
O=C(O)c1cccc(S(=O)(=O)N2CCC(Cc3ccccc3)CC2)c1 | 1.9 | -4 | 0.7 | 5.8 | 2 | 4 | -0.1 | 1
Cc1ccc(C(=O)NC(=O)CSc2nnc(C)s2)cc1 | 1.8 | -2 | -1.4 | 0.3 | -3 | -16 | 0.6 | -17
COCCC(=O)Nc1ccc2c(c1)CN(C(=O)c1ccc(CSC)o1)CC2 | -1.8 | -3 | 3.0 | -1.9 | 0 | 1 | 0.8 | -7
OCCCc1nc2n(n1)C(c1ccccc1)C=C(c1ccc(F)cc1)N2 (stereo not given) | -4.8 | -1 | 2.9 | -79 | -4 | 24 | -1.9 | -7
COc1ccc(OC)c(C2=Nn3c(nnc3-c3cccc(OC(C)C)c3)SC2)c1 | -1.8 | 3 | -0.7 | -0.8 | 3 | 3 | -1.0 | ?
Cc1cccc(NC(=O)Nc2nnc(-c3ccccc3)o2)c1 | ? | -2 | -2.0 | 0.2 | 5 | -6 | 0.1 | -5
Cc1nn(-c2ccccn2)c2c1-c1nc(N3CCOCC3)ncc1CC2 | -1.0 | 6 | -1.0 | -54 | 9 | 37 | 0.6 | 17
CS(=O)(=O)N1CCN(C(=O)Cc2ccccc2Cl)CC1 | -0.5 | -5 | -3.1 | 1.3 | 6 | -1 | -0.9 | -3
COCCNC(=S)N/N=C(\C)c1ccccc1F | 0.4 | -6 | -0.2 | nt | -3 | -18 | 0.8 | -5
COc1ccc(NC(=O)c2cccn(CC=C(C)C)c2=O)cc1 | ? | -8 | 1.9 | 4.5 | 0 | 4 | -0.3 | 1
SMILES | RanGTP-Imp inh | Beta cell apopt | LANA-H2A inh | UCH37 inh | B2AR ag | Calb FLC | A1 inh | T cruzi inh
CCCCN(CCCC)CC(O)Cn1c2ccccc2c(=O)c2ccccc21 (stereo not given) | 114* | -5 | -1.7 | i | 6 | -27 | -0.4 | 3
CCCN(CCC)C(=O)CC(c1ccccc1)C1CCOC(C)(C)C1 (stereo not given) | -0.6 | 2 | -3.2 | 2.0 | 2 | 1 | 0.3 | 10
COC(=O)CSc1nc2c(c(=O)n(C)c(=O)n2C)n1CCC(C)C | 2.0 | -1 | -11 | 1.6 | 4 | 3 | 1.0 | -12
O=C(Nc1ccc(Cl)cc1)NC1(C(=O)NCCCN2CCOCC2)CCCCC1 | -2.6 | -2 | 0.1 | 0.4 | -1 | 0 | -0.4 | 5
CCN(C(=O)c1cccs1)c1nnc(-c2ccncc2)s1 | -2.4 | -8 | -3.5 | -0.8 | -3 | nt | -0.5 | -3
COC(=O)/C=C1\SC(N)=NC1=O | 3.6 | 3 | 1.6 | 5.3 | -2 | -14 | -0.9 | -1
O=C(O)CCC(=O)NNC(=O)CCCOc1ccc(Cl)cc1Cl | 4.2 | -3 | 3.4 | 6.2 | 6 | -2 | 1.2 | 2
COc1ccc(NC(=O)CN2C(=O)C(C)Oc3ccc(C)cc32)cc1 (stereo not given) | 2.0 | 0 | 1.1 | -0.9 | 7 | -2 | 0.2 | -5

Molecules above that contain a cyano group (two):
SMILES | RanGTP-Imp inh | Beta cell apopt | LANA-H2A inh | UCH37 inh | B2AR ag | Calb FLC | A1 inh | T cruzi inh
CC1(C)Cc2c(sc(NC(=O)C(C)(C)C)c2C#N)C(C)(C)N1 | 5.5 | -3 | -0.8 | 1.9 | -13 | -9 | 0.0 | 12
CC(=O)C1=C(C)NC(SCC(N)=O)=C(C#N)C1C (stereo not given) | 5.2 | 3 | 5.1 | -4.5 | -4 | 0 | 0.4 | 13
